MITF inhib: MITF inhibition; TRPM1 promoter luciferase, luminescence, 24 h; AID 2240; inhibition, % (concentration not given with the values); actives 0.28% (n = 37,000);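 active means most replicates at 85% or more, or half of them and the mean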;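 further: human melanocyte line stably carrying TRPM1 promoter luciferase reporter; 0% = vehicle wells and 100% = a positive control; the first replicate is given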
YB-1 expr inh: YB-1 expression inhibition; delta delta Cp (YB-1 minus CDIP) (test concentration not listed); U2OS, qRT-PCR YB-1 vs CDIP delta delta Cp, 16 h; active compounds read high; zero = DMSO, each unit about twofold; AID 434959; actives 0.37% (n = 30,000);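 active means delta delta Cp rounded down to an integer at or above 3, about 3 SD of DMSO wells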;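 further: higher means less YB-1 transcript or more CDIP transcript relative to DMSO; stock transfer was 100 nL into about 100 µL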
Shh pathway inh: blocks Sonic Hedgehog signaling. inhibition, % (test concentration not listed). Shh-LIGHT2 Gli-luciferase reporter, 30 h. actives 2.1% (n = 22,000);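 active means replicate mean of 65% or more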;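 further: pathway switched on by Shh-conditioned medium diluted 1 in 25 in low serum; 100 nL library stock added to about 40 µL; 0% = median of neutral wells and 100% = positive control level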
PD-1 reversal: activators reversing PD-1 mediated T-cell inhibition; primary human CD4 T cells, PD-L1 beads, CellTiter-Glo 96 h; activation, % (test concentration not listed); 29,000 tested, under 10 active; AID 2316;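 active means replicate mean of 50% or more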;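 further: 0% = median vehicle wells and 100% = positive control; 100 nL library stock added to about 50 µL; numbers are from one replicate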
* hit, by the source's call; . = not tested or not shown. Some of the compounds tested; count on the stated rates, not on these rows.

The line under a structure holds: YB-1 expr inh | PD-1 reversal | Shh pathway inh | MITF inhib
COc1ccc(/C=C/C(=O)NC(C)(C)C)cc1
→ -0.0197 | 0.1 | -109.9 | -60.8
Cc1cc(C(=O)Nc2cccc3c2O[C@@H](CN(C)S(=O)(=O)c2ccccc2)[C@H](C)CN([C@H](C)CO)C3=O)n(C)n1
→ 0.17 | 0.7 | -21.8 | -12.6
C=C1C(=O)O[C@@H]2C3=C(C)CC[C@]34O[C@@H](C[C@@H]4C)[C@H]12
→ -0.247 | -12.8 | 3.0 | 10.9
COc1ccc(OC)c(S(=O)(=O)N(C)CC(=O)Nc2ccc(C(F)(F)F)cc2)c1
→ . | 0.4 | . | 19.4
Cc1noc(C)c1NC(=O)Nc1ccc2c(c1)CC(=O)N([C@@H](C)CO)C[C@@H](C)[C@@H](CN(C)C(=O)Nc1c(C)noc1C)O2
→ -0.308 | 0.7 | -18.0 | -13.1
Cc1noc(C)c1NC(=O)N(C)C[C@H]1Oc2ccc(NC(=O)Cc3ccccc3)cc2CC(=O)N([C@H](C)CO)C[C@H]1C
→ . | 0.9 | 14.2 | -4.3
C[C@H]1CN([C@@H](C)CO)C(=O)c2cccc(NC(=O)NC3CCCCC3)c2O[C@@H]1CN(C)S(=O)(=O)c1ccc(Cl)cc1
→ -0.07 | 1.1 | 29.7 | 4.4
O=C(CN1CC(=O)Oc2ccccc21)OCC(=O)c1ccccc1
→ 0.12 | -1.0 | 27.6 | 30.6
CC(C)(C)c1ccc(Oc2c(C(F)(F)F)oc3cc(OCC(=O)O)ccc3c2=O)cc1
→ . | -0.3 | . | 5.5
Cc1nnc(Nc2cccc(Cl)c2C)s1
→ 0.0017 | -0.4 | 21.8 | 21.0
C=C(C(=O)O)[C@@H]1CC[C@@]2(C)CCC=C(C)[C@@H]2C1
→ -0.119 | -1.0 | -8.4 | -6.6
C[C@H](CO)N1C[C@H](C)[C@@H](CN(C)Cc2ccc(Cl)c(Cl)c2)Oc2ccc(NC(=O)Nc3ccc4c(c3)OCO4)cc2C1=O
→ -0.56 | 1.1 | -1.3 | 23.2
O=C(Nc1cnn(Cc2ccc(Cl)cc2Cl)c1)C1CC(c2cccc(Br)c2)=NO1 (configuration not stated)
→ . | 0.7 | . | 2.9
Cc1ccc(S(=O)(=O)Nc2ccc3c(c2)CC(=O)N([C@H](C)CO)C[C@@H](C)[C@@H](CN(C)Cc2ccc(Cl)c(Cl)c2)O3)cc1
→ 0.0707 | -4.7 | 35.2 | 25.7
C[C@H]1CN([C@@H](C)CO)C(=O)Cc2cc(NS(C)(=O)=O)ccc2O[C@H]1CN(C)Cc1ccccc1
→ 0.259 | 0.8 | -12.2 | -13.1
Cc1ccoc1CC[N+](C)(C)C
→ -0.0929 | -0.8 | -11.8 | 14.0
CNC[C@@H]1Oc2c(NC(=O)c3ccncc3)cccc2C(=O)N([C@@H](C)CO)C[C@H]1C
→ -0.00041 | . | -38.7 | -2.8
CCOc1ccc(NC(=O)C(C)Sc2ncnc3sc(-c4ccccc4)cc23)cc1 (configuration not stated)
→ . | 0.3 | . | -12.3
CN(C)C1=NC(C(F)(F)F)(C(F)(F)F)N=C(c2ccccc2)O1
→ -0.327 | 0.0 | -27.1 | -7.5
CCn1c(SCC(=O)Nc2c(C)cc(C)cc2C)nnc1-c1ccccc1C
→ . | 0.4 | . | 2.6
CC(C)NC(=O)Nc1ccc2c(c1)CC(=O)N([C@@H](C)CO)C[C@@H](C)[C@@H](CN(C)C(=O)Nc1ccc3c(c1)OCO3)O2
→ -0.031 | -0.1 | 10.9 | -0.6
Cc1ccc(S(=O)(=O)Nc2ccc3c(c2)C(=O)N([C@H](C)CO)C[C@@H](C)[C@@H](CN(C)S(=O)(=O)c2c(C)noc2C)O3)cc1
→ 0.0906 | 0.3 | -3.9 | -19.8
O=C(/C=C/C=C/c1ccc2c(c1)OCO2)N1CCCC1
→ 0.933 | . | -65.0 | .
COc1ccc(C)cc1NC(=O)CN(C)S(=O)(=O)c1ccccc1
→ . | -0.8 | . | -4.2
O=c1c(O)c(-c2ccc(O)cc2)oc2cc(O)cc(O)c12
→ 0.021 | . | -19.0 | -185.1
Cc1noc(C)c1S(=O)(=O)Nc1ccc2c(c1)C(=O)N([C@@H](C)CO)C[C@@H](C)[C@@H](CN(C)S(=O)(=O)c1ccccc1)O2
→ 0.146 | -0.4 | 16.2 | 4.9
COC(=O)CNC(=O)c1cn(-c2ccccc2)nc1-c1ccc([N+](=O)[O-])cc1
→ . | 1.2 | . | -3.9
Cc1ccc(C(=O)OC(c2ccccc2)c2nccc3ccccc23)cc1 (configuration not stated)
→ -0.139 | -0.1 | -49.4 | -32.3
O=c1[nH]c(CSc2nnc(-c3cccnc3)n2-c2ccccc2)nc2ccccc12
→ . | 0.9 | . | 7.1
COc1ccc(CN(C)C[C@H]2Oc3c(NC(=O)Nc4ccc(F)cc4)cccc3C(=O)N([C@@H](C)CO)C[C@@H]2C)cc1
→ 0.308 | . | -3.0 | 7.6
C[C@@H]1CN([C@@H](C)CO)C(=O)Cc2cc(NS(=O)(=O)c3cn(C)cn3)ccc2O[C@@H]1CN(C)CC1CC1
→ -0.205 | 1.0 | . | -5.3
Cc1cccc(C)c1OCC(=O)Nc1ccccc1C(=O)Nc1ccc(C(=O)O)cc1
→ . | 1.7 | . | -51.9
COc1ccc(NC(=O)Nc2ccc3c(c2)CC(=O)N([C@@H](C)CO)C[C@H](C)[C@H](CN(C)CC2CC2)O3)cc1
→ -0.364 | 0.2 | . | 6.9
COc1ccc(C)cc1S(=O)(=O)N1CCCC(C(=O)Nc2ccccc2)C1 (configuration not stated)
→ . | 4.1 | . | -15.5
C[C@H]1CN([C@@H](C)CO)C(=O)c2cc(NS(=O)(=O)c3ccccc3)ccc2O[C@@H]1CN(C)S(=O)(=O)c1ccccc1
→ -0.183 | -1.0 | 38.2 | -4.9
CC(=O)O[C@@H]1c2c(ccc3ccc(=O)oc23)O[C@@H]1C(C)(C)OC(=O)C=C(C)C
→ -0.543 | 3.9 | 50.3 | -3.9
COc1ccc(NC(=O)Nc2cccc3c2O[C@@H](CN(C)C(=O)Nc2ccccc2)[C@H](C)CN([C@H](C)CO)C3=O)cc1
→ 0.0433 | -0.1 | 9.4 | 3.3
CC(C)NC(=O)Nc1cccc2c1O[C@@H](CN(C)C)[C@@H](C)CN([C@H](C)CO)C2=O
→ 0.0533 | 2.2 | 6.4 | 9.1
COc1ccc(NC(=O)N(C)C[C@H]2Oc3ccc(NS(=O)(=O)c4cccs4)cc3C(=O)N([C@@H](C)CO)C[C@@H]2C)cc1
→ -0.122 | 0.6 | -23.8 | -8.2
Cc1ccccc1-c1nc(SCC(=O)Nc2ccccc2)n[nH]1
→ . | 0.7 | . | -3.3
C[C@@H]1CN([C@@H](C)CO)C(=O)c2cc(NC(=O)Nc3cccc4ccccc34)ccc2O[C@@H]1CN(C)S(=O)(=O)c1ccccc1
→ -0.27 | 0.3 | 31.9 | 17.8
C[C@H]1CN([C@@H](C)CO)C(=O)Cc2cc(NC(=O)Nc3ccc4c(c3)OCO4)ccc2O[C@H]1CN(C)CC1CCCCC1
→ -0.215 | 3.0 | -9.8 | -23.0
C[C@@H]1CN([C@@H](C)CO)C(=O)Cc2cc(NS(C)(=O)=O)ccc2O[C@@H]1CN(C)S(=O)(=O)c1cccs1
→ -0.384 | 2.1 | 15.0 | -2.8
C[C@H](CO)N1C[C@H](C)[C@H](CN(C)C)Oc2ccc(NC(=O)Nc3ccc4c(c3)OCO4)cc2C1=O
→ -0.0411 | 0.3 | -34.1 | -4.8
O=C(NCc1cccnc1)c1cccc(NC(=O)c2ccco2)c1
→ . | 1.4 | . | 5.8
COc1ccc(OC)c(C(=O)CSc2nnc(-c3cccs3)n2C)c1
→ . | -0.5 | . | -6.3
CC(C)NCC(O)COc1ccccc1-n1cccc1 (configuration not stated)
→ -0.293 | 2.2 | -20.4 | -10.3
Cn1c(SCC(=O)Nc2cccc(C(F)(F)F)c2)nnc1-c1cc2cc(Cl)ccc2o1
→ . | 1.0 | . | -16.4
C[C@H]1CN([C@@H](C)CO)C(=O)c2cc(NS(=O)(=O)c3ccc(F)cc3)ccc2O[C@@H]1CN(C)C(=O)Nc1ccccc1
→ -0.463 | -1.4 | . | 4.6
O=C(CN1C(=O)c2ccccc2C1=O)c1ccc(C(F)(F)F)cc1
→ 0.0345 | 3.3 | -50.4 | -9.2

Only MITF inhib (4 entries from above):
| canonical_smiles | MITF inhib |
| --- | --- |
| C[C@H]1CN([C@@H](C)CO)C(=O)Cc2cc(NC(=O)Nc3ccc4c(c3)OCO4)ccc2O[C@H]1CN(C)CC1CCCCC1 | -23.0 |
| CC(C)NCC(O)COc1ccccc1-n1cccc1 (configuration not stated) | -10.3 |
| O=C(NCc1cccnc1)c1cccc(NC(=O)c2ccco2)c1 | 5.8 |
| O=C(CN1C(=O)c2ccccc2C1=O)c1ccc(C(F)(F)F)cc1 | -9.2 |

(list continues)
The line under a structure holds: YB-1 expr inh | PD-1 reversal | Shh pathway inh | MITF inhib
COc1ccc(S(=O)(=O)Nc2ccc3c(c2)CC(=O)N([C@H](C)CO)C[C@@H](C)[C@H](CN(C)C)O3)cc1
→ 0.0112 | 1.3 | -15.4 | 3.3
CCOC(=O)c1c(N(C)C)ccc(C2C=CNC(=O)N2)c1C (configuration not stated)
→ -0.502 | 0.3 | -24.6 | -10.1
COc1ccc(NC(=O)CNC(=O)c2ccccc2C)cc1
→ . | 0.7 | . | -48.7
C[C@@H]1CN([C@@H](C)CO)C(=O)c2cc(NC(=O)Nc3ccccc3)ccc2O[C@@H]1CN(C)CC1CCCCC1
→ -0.679 | -1.1 | . | -15.6
O=C(Nc1sc2c(c1C(=O)NCC1CCCO1)CCC2)c1sc2ccccc2c1Cl (configuration not stated)
→ . | 6.4 | . | -46.9
Cc1noc(C)c1S(=O)(=O)N(C)C[C@@H]1Oc2ccc(NC(=O)Cc3ccccc3)cc2CC(=O)N([C@H](C)CO)C[C@@H]1C
→ -0.339 | -0.2 | 5.8 | -1.4
Cc1ccc(S(=O)(=O)Nc2cccc3c2O[C@H](CN(C)Cc2ccc4c(c2)OCO4)[C@H](C)CN([C@H](C)CO)C3=O)cc1
→ -0.0867 | 0.1 | -4.9 | -6.7
C[C@@H]1CN([C@@H](C)CO)C(=O)c2cccc(NC(=O)NC3CCCCC3)c2O[C@H]1CN(C)S(=O)(=O)c1cn(C)cn1
→ 0.125 | . | -12.5 | 2.3
C[C@@H]1CCCCO[C@@H](CN(C)C(=O)C2CCCCC2)[C@@H](C)CN([C@H](C)CO)C(=O)c2cc(NC(=O)NC3CCCCC3)ccc2O1
→ 0.118 | -0.2 | -27.7 | -13.2
CC(C)NC(=O)Nc1cccc2c1O[C@@H](CN(C)C(=O)Nc1ccc3c(c1)OCO3)[C@H](C)CN([C@H](C)CO)C2=O
→ -0.335 | 0.1 | 2.4 | -2.0
C[C@H]1CN([C@@H](C)CO)C(=O)Cc2cc(NS(=O)(=O)c3cn(C)cn3)ccc2O[C@H]1CN(C)S(=O)(=O)c1cccs1
→ 0.426 | 1.6 | -17.5 | -4.4
O=C(O)c1ccccc1S(=O)c1ccc(Cl)cc1 (configuration not stated)
→ -0.0176 | 0.0 | -10.0 | 8.4
O=c1oc2ccccc2n1CCn1c2ccccc2c2nc3ccccc3nc21
→ . | -7.3 | . | 40.5
C[C@H](CO)N1C[C@H](C)[C@H](CN(C)S(=O)(=O)c2ccc(F)cc2)Oc2ccc(NC(=O)Cc3cn(C)c4ccccc34)cc2C1=O
→ -0.35 | -1.4 | . | 15.9
CC(C)NC(=O)Nc1ccc2c(c1)CC(=O)N([C@@H](C)CO)C[C@H](C)[C@@H](CN(C)S(=O)(=O)c1cn(C)cn1)O2
→ 0.2 | . | -33.6 | -3.2
C[C@@H]1CN([C@H](C)CO)C(=O)c2cccc(NC(=O)c3nc4ccccc4s3)c2O[C@@H]1CN(C)S(=O)(=O)c1ccc(Cl)cc1
→ -1.07 | -1.5 | 33.2 | 4.6
S=c1[nH]nc(Cn2nnc3ccccc32)o1
→ 0.0691 | 3.3 | -7.8 | -1.3
COc1c(OC/C=C(\C)CC2C=C(C)C(=O)O2)ccc2ccc(=O)oc12 (configuration not stated)
→ -0.37 | 1.2 | 6.5 | 11.4
CC(C)NC(=O)N(C)C[C@H]1Oc2ccc(NS(=O)(=O)c3cn(C)cn3)cc2C(=O)N([C@H](C)CO)C[C@H]1C
→ 0.0416 | 1.4 | -47.5 | 3.9
C[C@H](CO)N1C[C@H](C)[C@H](CN(C)Cc2ccc3c(c2)OCO3)Oc2c(NC(=O)Nc3cccc4ccccc34)cccc2C1=O
→ -0.4 | -1.5 | 27.3 | 18.0
COc1ccc(C(=O)NC23CC4CC(CC(C4)C2)C3)cc1
→ -0.023 | 0.8 | -51.5 | -43.4
C[C@H]1CN([C@@H](C)CO)C(=O)Cc2cc(NS(=O)(=O)c3ccc(Cl)cc3)ccc2O[C@@H]1CN(C)C(=O)Nc1cccc2ccccc12
→ 0.166 | 0.3 | -9.1 | 5.2

Source: PubChem BioAssay
